VDR inhibitor – inhibitors of human vitamin D receptor | VDR-SRC2-3 peptide fluorescence polarization, 2 h | Potency, µM, for inactives: max response, negative = inhibition, hits mostly inhibitors | 0.93% of 400,000 active; active = well fitted inhibition curve with a large enough effect; note: series mostly up to about 120 µM
Target sequence (P11473 whole entry, looked up): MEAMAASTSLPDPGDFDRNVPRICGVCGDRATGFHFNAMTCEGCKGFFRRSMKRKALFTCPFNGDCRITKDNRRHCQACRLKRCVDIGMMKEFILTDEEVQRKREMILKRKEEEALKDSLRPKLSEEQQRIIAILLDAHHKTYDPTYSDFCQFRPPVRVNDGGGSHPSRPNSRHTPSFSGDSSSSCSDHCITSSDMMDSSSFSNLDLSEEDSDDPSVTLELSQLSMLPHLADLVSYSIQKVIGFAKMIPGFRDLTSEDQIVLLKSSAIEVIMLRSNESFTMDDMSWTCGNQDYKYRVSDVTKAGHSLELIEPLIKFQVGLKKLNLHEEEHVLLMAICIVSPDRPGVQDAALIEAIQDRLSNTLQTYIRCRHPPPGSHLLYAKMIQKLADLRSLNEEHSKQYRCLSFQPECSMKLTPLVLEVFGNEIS
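After 23 nl compound addition and a short centrifugation, plates sat for 2 hours at ambient temperature; polarization of fluorescence then indicated loss of VDR binding to peptide SRC2-3.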
Starred values were filed as active, the others as inactive; & = joins results of further samples. % is set by controls: 0 for no effect and ±100 for the full control effect; potency is the fitted concentration of half-maximal effect. An excerpt, so the mix of outcomes need not match the whole.

SMILES,VDR inhibitor
Cc1ccc2c(c1)C1CN(C)CCC1N2C(=S)NC(=O)c1ccc(Cl)cc1Cl (stereo not drawn),-10%
O=C(NC1CCCCC1)N1CCN(Cc2ccco2)CC1,14%
COc1ccc(/C=C(/NC(=O)c2cccs2)C(=O)NCc2ccco2)cc1OC,-8%
Cc1nc(SCC(=O)Nc2ccc3c(c2)OCCO3)c2oc3ccccc3c2n1,4%
O=C(O)c1cc(N/N=C/c2ccc3c(c2)OCCO3)ccc1Cl,3%
CCC(=NCc1ccccc1)c1c(C(F)(F)F)[nH]n(-c2nc3ccccc3s2)c1=O,-4%
COc1cc(/C=C(\C#N)c2ccccn2)cc(OC)c1O,-4%
CCc1ccc(OCc2nnc(SCCN3CCOCC3)n2C)cc1,-7%
O=C(CCl)Nc1ccc2c(c1)OCO2,5%
COc1cccc(CN2CCN(Cc3cccc(Br)c3)CC2)c1OC,-5%
CCC(=O)N1CCc2cc(CNC(=O)Nc3cc(OC)c(OC)c(OC)c3)ccc21,3%
COc1ccccc1CN=C1NC(=O)C(CC(=O)Nc2ccc(OC)c(OC)c2)S1 (stereo not drawn),8%
COc1cc(CNCCCN2CCOCC2)cc(Br)c1OCc1ccc(Cl)cc1,-3%
COc1cccc(CNC(=O)C(=O)NCC(c2ccco2)N2CCOCC2)c1 (stereo not drawn),-15%
CCc1cccc(CC)c1NC(=O)COC(=O)/C(C#N)=C/c1ccc(OC)cc1,-9%
Nc1ncnc(NCc2ccc(F)cc2)c1[N+](=O)[O-],8%
COc1cc(CN(C(=O)c2ccccc2)c2ccccn2)cc(OC)c1OC,2%
CC(=O)Nc1nnc(S(=O)(=O)N2CCN(c3ccc([N+](=O)[O-])cc3Cl)CC2)s1,-23%
CC1=C(C(=O)N2CCN(c3cccc(C(F)(F)F)c3)CC2)C2(CCCCC2)OC1=O,-16%
CC(=O)NCC(=O)NC1(C(=O)NC2CCCC2)CCCCC1,-20%
Cc1ccc(-c2cc3ncc(C(=O)c4cc([N+](=O)[O-])ccc4O)cn3n2)cc1,-22%
O=C(C1CC1)N1CCCN(C(=O)C2CC2)CC1,15%
Cc1ccc(N2C(N)=C(C#N)C(c3cccs3)C3=C2CC(C)(C)CC3=O)cc1 (stereo not drawn),-17%
CCOc1ccc2[nH]c3nc(SCC(=O)OC(C)C)nnc3c2c1,-8%
CCOC(=O)CNS(=O)(=O)c1cc(-c2nnc(Nc3cccc(O)c3)c3ccccc23)ccc1C,-5%
CC1(C)SCC(C(=O)O)N1C=O (stereo not drawn),-7%
Cc1[nH]c(=O)[nH]c(=O)c1Cc1cccc2ccccc12,-2%
O=C(O)C1CCCN1c1ncnc2ccccc12 (stereo not drawn),9%
COc1ccccc1CNS(=O)(=O)c1c(C(=O)N2CCCCCC2)c(C)n(C)c1C,-12%
CCCC(=O)Nc1sc2c(c1C(=O)OC)C(C(=O)OC)CC2 (stereo not drawn),-10%
O=C(CSc1nnc(Cn2nnc(-c3ccccc3)n2)n1-c1ccccc1)Nc1ccc(F)cc1,-13%
CC(C)C[C@H](NC(=O)N1CCn2c1nc1ccccc12)C(=O)NCc1ccc2c(c1)OCO2,-5%
CC(C)NC(=O)c1cc2cc(Br)ccc2oc1=O,4%
Cc1cc[n+](C(C)C(=O)c2ccc(Cl)cc2)cc1 (stereo not drawn),-2%
O=C(CN1C(=O)COc2ccc(S(=O)(=O)N3CCCCC3)cc21)NCCc1ccc(Cl)cc1,-1%
CCOc1cc(N2CCOCC2)c(OCC)cc1NC(=O)COc1cccc2cccnc12,7%
COCCCNC(=O)Nc1ccc(Br)cc1Cl,-15%
Nc1ccc(C(=O)Nc2ccc(Nc3ccncc3)cc2)cc1,3%
CC(=O)NC(Cc1c[nH]c2ccccc12)C(=O)NCc1ccc2c(c1)OCO2 (stereo not drawn),-16%
O=C1CCCN1CC(O)CS(=O)(=O)Cc1ccc(Cl)c(Cl)c1 (stereo not drawn),0%
CCc1nnc(NC(=O)c2c(OC)cccc2OC)s1,-9%
O=C(Nc1ccc(F)cc1)/C(=C1/CCCCCN1)[N+](=O)[O-],2%
Cc1ccccc1CCNCc1c(C(=O)O)c(C)n(Cc2c(F)cccc2Cl)c1C,3%
Cc1nn(-c2ccc(F)cc2)c(C)c1NS(=O)(=O)c1ccc2ccccc2c1,-4%
Cc1ccccc1-n1c(Cn2c(=O)sc3ccccc32)nnc1SCC(N)=O,-25%
COc1cccc(/C=N/Nc2ccnc(=O)[nH]2)c1O,-10%
Cc1ccc(S(=O)(=O)N(C)c2ccc(C(=O)Nc3c(C)n(C)n(-c4ccccc4)c3=O)cc2)cc1,-1%
O=C(NC(=S)NC1CCCCC1)c1ccccc1[N+](=O)[O-],-3%
CCOc1cc(N2CCOCC2)c(OCC)cc1NC(=O)c1ccc2ccccc2n1,-16%
CCOC(=O)c1oc2ccc(S(=O)(=O)n3nc(-c4ccccc4)cc3N)cc2c1C,-13%
N#CC1=C(N2CCCCC2)c2cc3c(n2C1=O)CCCC3,-3%
Cn1nc(C(=O)N2CCN(c3ccccc3F)CC2)c2c1-c1ccccc1S(=O)(=O)C2,-4%&9%
Cc1cc(C)cc(NC(=O)C(=O)NCCc2sc(-c3cccc(F)c3)nc2C)c1,6%
CC(C)(C)OC(=O)N1CCC(c2cc(-c3cccs3)n[nH]2)CC1,-4%
CCCCN(C(=O)c1ccc2c(c1)S(=O)(=O)N=C1CCCCCN12)c1c(N)n(CCCC)c(=O)[nH]c1=O,0%
Cc1ccc(-c2nc(-c3cc4cccc(OCc5cccc(C)c5)c4oc3=O)no2)cc1,-13%
CCCC(C)c1nnc(NC(=O)c2cc(C(=O)OC)cc([N+](=O)[O-])c2)s1 (stereo not drawn),50µM*
CN1CCN(NC(=S)NC2CCCC2)CC1,-7%
Cc1ccc(CCNC(=O)CN(c2ccc(C)cc2)S(=O)(=O)c2c(C)noc2C)cc1,-9%&-1%
Cc1ccc(NC(=O)COc2ccc3oc4c(c3c2)CCCC4)c(C)c1,-27%

(continued)
SMILES,VDR inhibitor
Cc1ccc(-c2nc3ccccc3o2)cc1NC(=O)c1cccc2c(Cl)cccc12,-17%
CC(C)C(NC(=O)c1ccccc1)C(=O)OCC(=O)N1CCCC1 (stereo not drawn),-3%
O=S(=O)(c1cccc(Cl)c1)N1CN(CC2CCCO2)c2nc3ccccc3nc21 (stereo not drawn),-25%
C=CCC1c2cccc(C(=O)O)c2C(=O)N1c1ccc(Cl)cc1 (stereo not drawn),6%
Cc1cccc(Cn2cnc3c(oc4ccccc43)c2=O)c1,-3%
O=C(COC(=O)c1c2c(nc3ccccc13)/C(=C\c1cccs1)CCC2)Nc1ccccc1,4%
COc1ccc(S(=O)(=O)N2CCC(C(=O)Oc3c(OC)cccc3OC)CC2)cc1OC,3%
O=C(c1ccc(C(F)(F)F)cc1)N1CCN(S(=O)(=O)c2ccc3c(c2)OCCCO3)CC1,6%
COc1ccc(CCN(C)C(=O)C2CCN(C(=O)Nc3ccccc3)CC2)cc1OC,-16%
CC(C)OCCCNC(=O)C1CCN(S(=O)(=O)N2CCCCC2)CC1,-2%
CC(=O)c1ccc(NC(=O)C(C)Sc2nnnn2C)cc1 (stereo not drawn),-3%
O=[N+]([O-])c1ccc(OCC2CC(c3ccccc3)=NO2)cc1 (stereo not drawn),3%
CC(C)c1ccc(OCC(=O)Nc2c3c(nn2C(C)(C)C)CS(=O)(=O)C3)cc1,6%
COc1ccc(-n2c(Cc3cccn3C)nnc2SCC(=O)Nc2ccccc2)cc1,-19%
COc1ccc(CNC(=O)c2nn(C)c3c2CSc2ccccc2-3)cc1,0%
CC(C)c1nc(SCC(=O)Nc2ccc([N+](=O)[O-])cc2Br)n[nH]1,-12%
CCc1ccc(CNC(=O)c2nn(-c3ccc(C)c(C)c3)nc2CO)cc1,0%
O=C(COC(=O)CC1CC2CCC1C2)Nc1ccc(F)cc1 (stereo not drawn),3%
NC(=O)N/N=C/c1sc(=O)n(-c2ccccc2)c1Cl,-14%
COc1ccc(Oc2nc(C)nc3c2oc2ccccc23)cc1,15%
CC(C)CC(c1nnnn1C1CCCC1)N1CCN(C(=O)c2ccco2)CC1 (stereo not drawn),-5%
CCCCNC(=O)CSc1nc2ccccc2nc1Cc1ccc(Cl)cc1,20%
CC(Oc1cccc2cccnc12)C(=O)N/N=C/c1ccccc1 (stereo not drawn),-1%
O=C(O)CNS(=O)(=O)Cc1ccccc1,7%
O=C(O)CC(c1ccc(Cl)cc1)N1Cc2ccccc2C1=O (stereo not drawn),4%
Cc1noc(C)c1CSc1ccc(Br)cc1,-8%
CCc1nc(SCC(=O)NCc2ccco2)c2c3c(sc2n1)CCCC3,-11%
CCN(CC)c1cc(C)c(C#N)c2nc3ccccc3n12,0%
O=C(COc1ccc2ccc(=O)oc2c1)N1CCN(c2ccccc2)CC1,-4%
Cc1cc(C)n(-c2ccc(C(=O)OCC(=O)Nc3ccccc3F)cc2)n1,-20%
CCS(=O)(=O)CCn1c([N+](=O)[O-])cnc1C,-2%&-5%
C/C(=N\O)C(=O)OC1CC(C)CCC1C(C)C (stereo not drawn),-3%
O=C(CSCC(=O)N1CCCCC1)Nc1nc(-c2ccc(Cl)s2)cs1,8%
Cc1csc2nc(COC(=O)c3ccccc3NC(=O)COc3ccccc3F)cc(=O)n12,0%
COc1ccc(N=Nc2cc(C)c(O)c(CN3CCCCC3)c2)cc1,5%
CCOC(=O)CNC(=O)c1cccnc1,-4%
Cc1csc(NC(=O)c2ccccc2[N+](=O)[O-])n1,-3%
Cn1cccc1C(=O)OCC(=O)N1c2ccccc2NC(=O)C1(C)C,-7%
CCC1=NN(C(=O)Cc2ccccc2)C(O)(c2ccncc2)C1 (stereo not drawn),14%
Cc1cc(NC(=S)NC(=O)/C=C/c2ccc(S(=O)(=O)N3CCOCC3)cc2)ccc1Br,-5%

Two compounds picked at random from the list so far:
SMILES,VDR inhibitor
CCCCNC(=O)CSc1nc2ccccc2nc1Cc1ccc(Cl)cc1,20%
Cc1cc(C)n(-c2ccc(C(=O)OCC(=O)Nc3ccccc3F)cc2)n1,-20%

3 entries from above, with each value named.
compound: CCc1nnc(NC(=O)c2c(OC)cccc2OC)s1
  VDR inhibitor: -9%

compound: Cc1cc(C)cc(NC(=O)C(=O)NCCc2sc(-c3cccc(F)c3)nc2C)c1
  VDR inhibitor: 6%

compound: CC(=O)Nc1nnc(S(=O)(=O)N2CCN(c3ccc([N+](=O)[O-])cc3Cl)CC2)s1
  VDR inhibitor: -23%

(more compounds)
SMILES,VDR inhibitor
Cc1ccc(OCc2cc(C(=O)NC3CCc4ccccc43)no2)cn1 (stereo not drawn),-24%
CS(=O)(=O)Nc1cccc(C2=NN(C(=O)c3cccc([N+](=O)[O-])c3)C(c3cccs3)C2)c1 (stereo not drawn),4%
O=C(O)CCC(=O)Nc1ccc(OCC2CCCO2)cc1 (stereo not drawn),-2%
O=C(N/N=C/c1cccnc1)c1ccc2c(c1)OCCO2,24%
CN1C(=O)CSc2ccc(NC(=O)N3CCC(N4CCCCC4)CC3)cc21,-5%
CC1CCN(C(=O)CCNS(=O)(=O)c2ccc(Cl)cc2)CC1,-8%
O=C(Nc1cc(S(=O)(=O)N2CCOCC2)ccc1N1CCCC1)c1ccc(F)cc1,40µM*
O=C(NCc1ccccc1)c1onc(CS(=O)(=O)c2ccc(Cl)cc2)c1C(=O)NCc1ccccc1,9%
CCCOc1cccc(C(=O)N(Cc2sccc2C)C2CCS(=O)(=O)C2)c1 (stereo not drawn),22%
CC(C)C(=O)Nc1cccc(-c2csc(-c3ccccc3)n2)c1,-2%
O=c1ccnc(S/C=C/c2ccccc2)[nH]1,4%
O=C1C2CC=CCC2C(=O)N1c1ccc(Cc2ccncc2)cc1 (stereo not drawn),-6%
COc1ccc(/C(O)=C2/C(=O)C(=O)N(c3nc(C)c(C)s3)C2c2ccco2)cc1 (stereo not drawn),17%
O=C(CNC(=O)c1cccc(Br)c1)N/N=C/c1cn[nH]c1-c1ccccc1,19%
Nc1nc(SCC(=O)NC2CCCC2)[nH]c(=O)c1NC(=O)c1cccs1,-9%
COc1ccc(CN=CC2=C(O)CNC2=O)cc1,6%
O=C(Nc1ccc(Cl)c(C(F)(F)F)c1)[C@@H]1CC=C[C@@H]2CCN(Cc3ccc(Cl)c(Cl)c3)C(=O)[C@@H]21,-4%
CCOC(=O)c1sc2ncn(CC(=O)NCC3CCCO3)c(=O)c2c1C (stereo not drawn),-4%
Cc1cc(/C=N/n2cnnc2)c(C)n1-c1ccc(Cl)cc1Cl,-7%
CCN(CC)S(=O)(=O)c1cccc(C(=O)OCC(=O)c2ccc3c(c2)OCCO3)c1,-17%
Cc1ccc(-c2csc(NC(=O)c3ccccc3F)c2C(=O)O)cc1,-22%
Nc1ncn(C(=S)Nc2ccccc2)n1,-3%

Arranged by molar mass (low to high): 7 of the compounds above.
SMILES,VDR inhibitor
CC(C)C(=O)Nc1cccc(-c2csc(-c3ccccc3)n2)c1,-2%
Cc1cc(/C=N/n2cnnc2)c(C)n1-c1ccc(Cl)cc1Cl,-7%
CCCOc1cccc(C(=O)N(Cc2sccc2C)C2CCS(=O)(=O)C2)c1 (stereo not drawn),22%
O=C(CNC(=O)c1cccc(Br)c1)N/N=C/c1cn[nH]c1-c1ccccc1,19%
CCN(CC)S(=O)(=O)c1cccc(C(=O)OCC(=O)c2ccc3c(c2)OCCO3)c1,-17%
O=C(Nc1cc(S(=O)(=O)N2CCOCC2)ccc1N1CCCC1)c1ccc(F)cc1,40µM*
O=C(Nc1ccc(Cl)c(C(F)(F)F)c1)[C@@H]1CC=C[C@@H]2CCN(Cc3ccc(Cl)c(Cl)c3)C(=O)[C@@H]21,-4%

Screens (PubChem)
